From PubChem BioAssay
Mtb hypoxia inh: inhibitors of hypoxia-regulated fluorescent reporter in Mycobacterium tuberculosis. AID 1159583. M. tuberculosis hypoxia-regulated fluorescent reporter, fluorescence. fluorescence inhibition, % (test concentration not listed). hit rate 0.1% among 300,000;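 active = 35 to 45% if threefold the growth effect, above 45% if 1.5-fold the growth effect; inactive = the rest, general growth blockers included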;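 note: wells of about 50 µL received 100 nL stock; 0% = vehicle wells and 100% = reference inhibitor wells; whole bacteria with a GFP reporter of the hypoxia response; strong numbers were not always called active; many hits fall short of the cut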
Autofluor counter: compound fluorescence in toxin protease inhibitor counterscreen | compound autofluorescence counterscreen, microsphere flow cytometry; active compounds read high | fluorescence intensity (concentration not given with the values) | hit rate 3.1% among 360,000 | AID 624483;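 active = at least 3 SD above the mean of all compounds, about 16000 in these data; inconclusive = too few beads counted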;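 note: 100 nL of 1 mM stock went into each well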
Sa RN4220 lethal: kills Staphylococcus aureus RN4220 | hit rate 0.33% among 330,000 | AID 1259311 | inhibition, % (concentration not given with the values) | S. aureus RN4220 growth, OD600, 16 h;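 active = z-score of -3 or lower and OD600 up to 0.18 on both plates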;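 note: plate controls were untreated cells for no effect and reference antibiotic for full effect; stock transfer was 100 nL into about 80 µL; one replicate is shown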
PrP 5UTR inh: suppresses PrP 5' UTR mRNA reporter expression; inhibition, % (no concentration beside the values); AID 488862; hit rate 0.35% among 340,000; cell-based PrP 5' UTR mRNA reporter, plate reader;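 active = every replicate at 50% or more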;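 note: 0 = median of the neutral control wells; tested in H4 reporter cells; numbers are from one replicate; inactives centre near -14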
ugtP null kill: growth inhibition of S. aureus ugtP deletion strain | S. aureus RN4220 ugtP deletion, OD600 growth, 16 h; some inactives read as strong as hits | growth inhibition, % (concentration not given with the values) | hit rate 0.54% among 330,000;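 active = z-score under -3 and OD600 up to 0.15 on both plates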;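 note: plate controls were untreated wells for no effect and antibiotic for full effect; wells of about 80 µL received 100 nL stock; the first replicate is given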
BJeLR lethal: BJeLR cell viability loss | inhibition, % (no concentration beside the values) | AID 1554 | BJeLR (HRASV12) viability, CellTiter-Glo ATP luminescence, 48 h; reference of the scale not given here | hit rate 0.17% among 300,000;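 active = replicate mean above 50%; inconclusive = above 50% but judged a plate artefact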;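 note: 50 nL library stock added to about 25 µL; numbers are from one replicate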
Mtb hypoxia inh growth: recorded beside Mtb hypoxia inh, whose call it bears; growth inhibition, %; measured here: M. tuberculosis growth (absorbance);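 0% = vehicle and 100% = reference antibiotic; read after six days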
* hit, by the source's call; ? = inconclusive; · = not tested or not shown.

SMILES | Mtb hypoxia inh | Mtb hypoxia inh growth | Autofluor counter | Sa RN4220 lethal | PrP 5UTR inh | ugtP null kill | BJeLR lethal
O=C(NNC(=O)c1ccc(SCC2CCCO2)c([N+](=O)[O-])c1)c1ccc(Cl)c([N+](=O)[O-])c1 (centres undefined) | 8 | 2 | 21281* | 3.5 | 4 | -2 | 3
N#Cc1ccccc1OCCN1C(=O)c2ccccc2C1=O | · | · | 6827 | 0.9 | -25 | -10 | -6
O=C(COC(=O)c1ccc(Cl)c([N+](=O)[O-])c1)Nc1ccccc1OC(F)F | 4 | 6 | 8227 | 3.4 | -26 | 3 | -11
CCc1ccc(CNC(=O)C2CCCN(c3nc4ccccc4o3)C2)cc1 (centres undefined) | 1 | -2 | 7751 | 7.1 | -4 | 17 | -2
O=C(Nc1ccc2nc3ccccc3nc2c1)c1ccccc1 | -3 | 5 | 2248 | 4.9 | -93 | 1 | 9
CCn1c(Oc2ccccc2F)nc2c1c(=O)n(C)c(=O)n2C | -2 | 13 | 3442 | 9.3 | -5 | 7 | -1
CC(=O)c1ccc(N2CCN(c3ccc(S(=O)(=O)NCCN(C)C)cc3[N+](=O)[O-])CC2)cc1 | 11 | -2 | 4215 | 2.9 | -18 | 16 | 27
CN(C)S(=O)(=O)c1ccc(C(=O)NCc2ccccn2)cc1 | 4 | 6 | 3906 | 4.9 | -48 | 3 | ·
Cc1ccc(/C=N/NC(=O)c2nnn(-c3nonc3N)c2-c2ccccc2)o1 | · | · | 5638 | · | -29 | · | 4
CC(C)(C)OC(=O)N1CCC[C@H]1C(=O)O | · | · | 3010 | · | -5 | · | 9
O=C(O)Cc1coc2cc3c(cc12)CCC3 | 17 | -3 | 4612 | 0.2 | -17 | 5 | -4
Cc1ccc(OCCOC(=O)c2cc(S(=O)(=O)N3CCCCC3)ccc2N2CCOCC2)cc1 | 2 | -1 | 6801 | 2.7 | 9 | -6 | ·

Six compounds drawn at random from the list so far:
SMILES | Mtb hypoxia inh | Mtb hypoxia inh growth | Autofluor counter | Sa RN4220 lethal | PrP 5UTR inh | ugtP null kill | BJeLR lethal
O=C(COC(=O)c1ccc(Cl)c([N+](=O)[O-])c1)Nc1ccccc1OC(F)F | 4 | 6 | 8227 | 3.4 | -26 | 3 | -11
O=C(Nc1ccc2nc3ccccc3nc2c1)c1ccccc1 | -3 | 5 | 2248 | 4.9 | -93 | 1 | 9
Cc1ccc(OCCOC(=O)c2cc(S(=O)(=O)N3CCCCC3)ccc2N2CCOCC2)cc1 | 2 | -1 | 6801 | 2.7 | 9 | -6 | ·
CCc1ccc(CNC(=O)C2CCCN(c3nc4ccccc4o3)C2)cc1 (centres undefined) | 1 | -2 | 7751 | 7.1 | -4 | 17 | -2
CN(C)S(=O)(=O)c1ccc(C(=O)NCc2ccccn2)cc1 | 4 | 6 | 3906 | 4.9 | -48 | 3 | ·
O=C(NNC(=O)c1ccc(SCC2CCCO2)c([N+](=O)[O-])c1)c1ccc(Cl)c([N+](=O)[O-])c1 (centres undefined) | 8 | 2 | 21281* | 3.5 | 4 | -2 | 3

Carrying on.
SMILES | Mtb hypoxia inh | Mtb hypoxia inh growth | Autofluor counter | Sa RN4220 lethal | PrP 5UTR inh | ugtP null kill | BJeLR lethal
O=Nc1c(O)n(Cc2ccc(Cl)cc2Cl)c2ccccc12 | 2 | 8 | 4073 | 0.5 | -11 | -18 | 2
CCn1c(SCC(=O)Nc2nc(C)c(C)s2)nnc1-c1ccco1 | 5 | 3 | 8022 | 28 | 3 | -5 | -2
CC(=O)C1=C(O)C(=O)N(c2ccc(O)cc2)C1c1ccc([N+](=O)[O-])cc1 (centres undefined) | · | · | 4533 | · | -6 | · | -22
CCOC(=O)c1ccccc1NS(=O)(=O)c1ccccc1F | -5 | -16 | 8234 | 4.5 | 22 | 8 | 2
C=CCSc1nc(NC)c2sccc2n1 | · | · | 3643 | 1.9 | -9 | -11 | -1
O=C(CCl)Nc1ncc(S(=O)(=O)c2ccc([N+](=O)[O-])cc2)s1 | 19 | 25 | 3601 | 41 | 1 | 40 | ·
COc1ccccc1OCC(=O)OCC(=O)NC1CCCCC1 | 2 | 8 | 3941 | 2.3 | -1 | 1 | ·
COc1ccc(N(C(=O)c2ccncc2)S(=O)(=O)c2cccs2)cc1 | 15 | -3 | 3222 | 2.8 | -4 | 6 | 13
COc1cc(C(=O)Oc2cc(N)n(S(=O)(=O)c3ccccc3)n2)cc(OC)c1OC | -4 | 6 | 4571 | 3.6 | -45 | 3 | -13
CCOc1ccc2ccccc2c1/C=N/NC(=O)CNC(=O)C(c1ccccc1)c1ccccc1 | · | · | 2229 | · | -35 | · | -5
O=C(NOCc1ccccc1)c1ccc(Cl)cc1 | 6 | 0 | 4667 | 1.5 | -9 | 11 | ·
OC(CN1C2=NCCN2c2ccccc21)c1ccccc1 (centres undefined) | 9 | 3 | 6312 | -1.8 | -13 | 7 | -9
O=C(Nc1ccc(N2CCCCC2)cc1)c1ccc(F)cc1F | -3 | -3 | 6276 | 5.1 | -102 | 1 | 12
CC(=O)c1ccc(NC(=O)C2CCN(S(=O)(=O)c3ccc4c(c3)N(C(C)=O)CCO4)CC2)cc1 | -1 | 9 | 5390 | 0.9 | -24 | 8 | 0
C(#CC1CCCC1)c1ccc2c(c1)COc1c3ccccc3nn1-2 | 13 | 15 | 3543 | 6.0 | -39 | 4 | 13
CCc1ccc(NC(=S)N2CCCC(C(F)(F)F)C2)cc1 (centres undefined) | 6 | 9 | 3152 | 1.3 | -11 | -4 | 12
O=C(C[C@H]1C(=O)N(CCc2ccccc2)C[C@@H]1Cc1ccccc1)Nc1ccccc1 | · | · | 4099 | · | -11 | · | 4
CC(NCC(=O)Nc1cc(S(=O)(=O)N2CCOCC2)ccc1Cl)c1ccc(Cl)cc1Cl (centres undefined) | 4 | 12 | 6170 | -3.3 | -17 | -5 | -13
CCCOP(=O)(OCCC)c1nc(-c2ccccc2)oc1NCc1ccccc1 | -1 | 7 | 2396 | -3.6 | -8 | -22 | 6
O=C(c1cc(COc2ccc(F)cc2Cl)on1)N1CCCC(c2ccccc2)C1 (centres undefined) | 12 | 3 | 3415 | 6.0 | -8 | -4 | -3
CN1c2ccccc2C(O)=C(C(=S)Nc2ccc(F)c(Cl)c2)S1(=O)=O | 1 | 0 | 4389 | 52 | -22 | 25 | 1
O=S(=O)(Nc1cc(Cl)ccn1)c1ccc(Cl)cc1 | 1 | 1 | 17683* | 7.1 | -4 | 12 | -2
CSC(=NC#N)N1CCN(c2ccc([N+](=O)[O-])cc2)CC1 | 14 | 2 | 1889 | 6.7 | -20 | 5 | 2
O=C(NN=Cc1ccccc1[N+](=O)[O-])c1ccc2nc[nH]c2c1 | -2 | 6 | · | -1.1 | · | 2 | ·
CC(C)CN(C(=O)c1ccc(S(=O)(=O)N2CCCC2)cc1)C1CCS(=O)(=O)C1 (centres undefined) | 1 | -1 | ? | 0.9 | -7 | 4 | 8
Cc1cc(Oc2ccccc2)nc(SCC(=O)Nc2ccccc2)n1 | 17 | 11 | 8069 | 5.3 | -60 | 4 | 7
Cc1[nH]c2ccccc2c1C(=O)CSc1nc2ccccc2[nH]1 | -5 | 7 | 10354 | -2.1 | -39 | -25 | 6
O=C(Nc1ccc(C(=O)NCCCN2CCN(c3ccccc3)CC2)cc1)C1=CSCCO1 | -6 | 7 | 5475 | 0.4 | 0 | 0 | -2
Cc1nnc(OCC(=O)NCCC2=CCCCC2)c2ccccc12 | -6 | 3 | 9449 | 3.1 | -17 | 3 | -6
CC1(C)Cc2c(sc3c2c(N)nc(=S)n3Cc2ccc(Br)cc2)CO1 | -1 | -5 | 3404 | 2.4 | -2 | -5 | -11
Cc1ccc(C(C#N)c2ccc3c(C(F)(F)F)cc(C(F)(F)F)nc3n2)cc1 (centres undefined) | · | · | 2616 | -0.1 | -5 | 3 | 3
COc1ccc(NS(=O)(=O)c2ccc(NC(=S)NC(=O)C(C)C)cc2)cc1 | · | · | 3026 | 0.8 | -21 | 80 | -5
O=C(c1cc2nc(-c3ccco3)cc(C(F)(F)F)n2n1)N1CCN(c2ccc(F)cc2)CC1 | 15 | 5 | 12709 | 4.4 | -15 | -4 | ·
O=C(CN1CC(=O)Oc2ccccc21)NCc1ccco1 | · | · | 4873 | 6.5 | -11 | 9 | 0
O=C(Nc1ccccc1C(=O)N1CCNCC1)c1ccco1 | 4 | -1 | · | -0.2 | · | 9 | 8
c1ccc(C(Cc2nc(-c3ccncc3)no2)c2ccccc2)cc1 | 9 | 4 | 9467 | -2.9 | -14 | 7 | 12
COc1ccc(C(=O)OCC(=O)NCCN2C(=O)CSC2=O)cc1[N+](=O)[O-] | 4 | 1 | 2904 | -0.2 | 8 | -4 | ·
Ic1ccc(N2CCN(Cc3c[nH]c4ncccc34)CC2)cc1 | 7 | 3 | 6074 | 13 | -11 | -4 | ·
Cc1ccc(C)c(NC(=O)c2cc(-c3cc(C)ccc3O)n[nH]2)c1 | -6 | 8 | 3587 | -0.9 | -35 | 30 | 0
C/C(CC(=O)Nc1ccc(C)c(Cl)c1)=N\NC(=O)Cc1ccccc1 | · | · | 1964 | · | -13 | · | -11
CCOc1cc(/C=C\[N+](=O)[O-])ccc1OCC(=O)N1CCOCC1 | 14 | 12 | 4100 | 3.9 | -3 | -8 | 9
COc1ccc(CN2CCN(C(=O)c3cccc(OC)c3OC)CC2)cc1OC | · | · | 4421 | · | -12 | · | 2
Cc1ccc(SCC(=O)Nc2cccc(-c3nnc(-c4ccco4)o3)c2)cc1 | 5 | -2 | 3954 | 17 | -58 | -15 | 3
O=C(NCC(c1ccco1)N1CCc2ccccc21)c1ccc([N+](=O)[O-])cc1 (centres undefined) | 7 | 4 | 6643 | -2.9 | -19 | 8 | 1
CC(C)C(OC(=O)c1ccco1)C(=O)NCc1ccc2c(c1)OCO2 (centres undefined) | 6 | 0 | 3435 | 0.0 | -21 | 8 | -6
CCOC(=O)N1CCN(C(=O)CN(c2cc(Cl)ccc2OC)S(=O)(=O)c2ccccc2)CC1 | -1 | 9 | 3614 | 2.2 | -21 | -1 | -1
COC(=O)c1cc(NC(=O)N2c3ccccc3Sc3ccccc32)cc(C(=O)OC)c1 | 9 | 6 | 8345 | 5.6 | -62 | 15 | -1
Cc1ccc2c(c1)C1C(CO2)C(c2ccccc2)[C@]2(C)C(=O)N(Cc3ccc(F)cc3)CC(=O)N12 (some centres undefined) | 1 | 7 | · | -2.4 | · | 7 | ·
N#CCSc1ccc(S(=O)(=O)N2CCOCC2)cn1 | 0 | 9 | 3734 | 4.1 | -21 | -2 | ·
COc1ccc(COC(=O)N/N=C(\C)CC(=O)Nc2ccc(Cl)cn2)cc1 | · | · | 5389 | · | -38 | · | -4
CC(C)CC(CC#N)N1CCN(Cc2ccccc2)CCC1=O (centres undefined) | 1 | 3 | · | 2.7 | · | -1 | ·
O=S(=O)(NC1CCCC1)c1ccc(S(=O)(=O)N(Cc2cccs2)CC2CCCO2)cc1 (centres undefined) | 3 | 0 | 8543 | 12 | 1 | 19 | -5
CC(C)N(Cc1ccccc1)C(=O)CN1C(=O)NC2(CCCC2)C1=O | 1 | 6 | 4008 | 4.2 | -24 | -2 | ·
Clc1ccc2nc(COc3ccccc3)[nH]c2c1 | 14 | 5 | 3193 | -2.4 | -50 | 4 | 5
Cc1sc(NC(=O)CCCC(=O)O)c(C(N)=O)c1-c1ccccc1 | 4 | 8 | 2680 | 5.1 | 47 | -2 | -5
NC(=O)c1c(Nc2nc3c(F)cccc3s2)sc2c1CCCC2 | 10 | 7 | 2494 | 45 | -25 | 43 | 0
O=C(CNS(=O)(=O)c1cccc2nsnc12)NCc1ccc(Cl)cc1 | 7 | 7 | 9920 | 3.6 | -26 | -7 | -15
CC(C=NNC(=O)c1c(Br)cnn1C)=Cc1ccccc1 | 2 | -2 | · | 0.6 | · | -3 | ·
CC1CN(C(=O)c2ccc(COc3ccc(C(C)C)cc3)o2)CC(C)O1 (centres undefined) | 2 | 8 | 4312 | 2.8 | -5 | 6 | ·
CCC(=O)N1CCc2cc(S(=O)(=O)CCC(=O)N3CCN(c4ccccc4)CC3)ccc21 | 9 | 2 | 6088 | 0.8 | -3 | 1 | 1
COc1ccccc1NS(=O)(=O)c1ccc(C(=O)OCC(=O)NCc2ccco2)cc1 | 3 | 9 | 3395 | 7.4 | -1 | 1 | 3
O=C(Cn1ncc2c1-c1ccccc1OC2)Nc1ccc(Cl)cn1 | 6 | 6 | 6303 | -2.7 | -11 | 2 | -3
Brc1cc2c(cc1/C=N/Nc1nc(N3CCCC3)nc(N3CCOCC3)n1)OCO2 | · | · | 11520 | · | -7 | · | 20
